ClpP mod: qHTS Assay for Activators of ClpP | Potency, µM (top dose mostly 57.5 µM), without a hit: top-dose activity change, negative = active | hit rate 1.9% among 340,000 | AID 651965, 2013 | purified B. subtilis ClpP, FRET peptide cleavage, 20 min | ATP-dependent Clp protease proteolytic subunit (Bacillus subtilis (strain 168)), P80244; active = well fitted falling curve with a large enough effect; inconclusive = small, poorly fitted or top-dose-only effect; inactive = no such curve, though single readings can be large or run the other way; note: potency is the fitted concentration of half-maximal effect; the source files actives as falling curves though it sought activators and does not explain the sign; nearly all actives have a fitted effect of over 65% in size; many hits overshoot -100%
Target sequence (P80244 whole entry, looked up): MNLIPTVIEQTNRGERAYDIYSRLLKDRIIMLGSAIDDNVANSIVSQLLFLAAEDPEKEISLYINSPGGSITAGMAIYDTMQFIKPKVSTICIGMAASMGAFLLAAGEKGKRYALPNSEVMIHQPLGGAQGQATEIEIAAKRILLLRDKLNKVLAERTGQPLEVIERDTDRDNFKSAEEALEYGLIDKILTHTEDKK
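Buffer: 100 mM Tris/HCl pH8, 100 mM KCl, 0.05% low protease BSA, 2.5% glycerol, 0.01% Tween-20. ClpP 10 microg/mL final; 20 min RT; delta FRET normalized to ADEP and DMSO controls.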
Sfp PPTase inh: qHTS Assay for Inhibitors of Bacillus subtilis Sfp phosphopantetheinyl transferase (PPTase); 4'-phosphopantetheinyl transferase ffp (Bacillus subtilis), Q9F4F7; Biochemical Sfp PPTase activity, qHTS; Potency, µM, for inactives: max response, negative = inhibition, hits mostly inhibitors; hit rate 3.5% among 310,000; AID 1490, 2009; active = well fitted inhibition curve with a large enough effect; inconclusive = small, poorly fitted or top-dose-only effect, or another doubt; inactive = no such curve, though single readings can be large or run the other way;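 note: the enzyme is Sfp with the accession as filed and its product quenches rhodamine fluorescence; potency is the fitted concentration of half-maximal effect; 0% = enzyme reaction without inhibitor and -100% = no enzyme wells; top concentration of the series not given in the record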
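Buffer: 50 mM Hepes-Na pH 7.6, 10 mM MgCl2, 0.01% Nonidet P-40, 0.01% BSA. Enzyme 15 nM, pre-exposed to compound 15 min; substrates then added and fluorescence change tracked over 30 min.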
Menin-MLL FL inh: qHTS Assay for Inhibitors Targeting the Menin-MLL Interaction in MLL Related Leukemias: Competition With Fluorescein Labeled MLL-derived Peptide; AID 1766, 2009; 290,000 tested, under 10 active; Fluorescence polarization, fluorescein-MLL peptide displacement from menin; FP activity change, % at 61.4 µM; inconclusive = falling polarisation curve, or a change in total fluorescence; inactive = total fluorescence flat and polarisation flat or rising; no compound was filed as active; the % refers to the polarisation; negative = inhibition;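 note: % of control where 0% means no effect; inhibitors lower the polarisation; unlabelled MLL peptide was the positive control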
TRPV1 potentiator: HTS Assay for Compounds that Act as Potentiators of the Vanilloid Receptor 1; TRPV1-expressing cells, Fluo-8 calcium influx, capsaicin EC20 potentiation; host cell line not named in the record; control for the full effect not named in the record; potentiation, % at 8.33 µM; hit rate 0.02% among 320,000; AID 540277, 2011; active means potentiation above 80%; inconclusive means 30% to 80%; inactive means below 30%; note: 0% is about no effect
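Fluo-8 calcium influx in TRPV1-expressing cells, kinetic read (ex 480/em 520 nm). Compound added and read 3 min for agonist activity, followed by capsaicin at EC20 final and 2 min further read for enhancement.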
gsp antagonist: qHTS for Antagonists of gsp, the Etiologic Mutation Responsible for Fibrous Dysplasia/McCune-Albright Syndrome: qHTS | gsp-mutant cells, cAMP HTRF, 30 min; control for the full effect not named in the record | Potency, µM (highest dose often 76.9 µM), for the others: at the highest dose activity change, negative = inhibition, usual class: inhibitors | hit rate 0.4% among 340,000 | AID 624288, 2012; active = falling curve of any shape with a large fitted effect; inconclusive = falling curve, mostly with a smaller effect; inactive = flat or rising curve; cell line not stated here;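 note: intracellular cAMP measured with PDE inhibitor Ro 20-1724 present during compound exposure; potency is the fitted concentration of half-maximal effect; % is set by controls: 0 for no effect and ±100 for the full control effect; nearly all actives have a fitted effect of over 65% in size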
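Measurement of cellular cAMP by homogeneous time-resolved fluorescence following a 30 min compound exposure at 37C. The PDE inhibitor […] was present throughout; the assay buffer was DPBS with 0.05% BSA and 0.005% Tween 20.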
D2 potentiator: Beta-Arrestin HTS for Positive Allosteric Modulators of the Human D2 Dopamine Receptor: Potentiators; AID 624464, 2012; DiscoveRx D2 beta-arrestin cells, luminescence, 90 min; 100% = 57 uM dopamine signal; potentiation, % (test concentration not listed); D(2) dopamine receptor (Homo sapiens), P14416; hit rate 0.23% among 360,000; active = potentiation of 50% or more; inconclusive = 30% to 50%; inactive = 30% or less;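 note: compound concentration not given in the record; tested on top of an EC20 dose of dopamine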
Target sequence (P14416 whole entry, looked up): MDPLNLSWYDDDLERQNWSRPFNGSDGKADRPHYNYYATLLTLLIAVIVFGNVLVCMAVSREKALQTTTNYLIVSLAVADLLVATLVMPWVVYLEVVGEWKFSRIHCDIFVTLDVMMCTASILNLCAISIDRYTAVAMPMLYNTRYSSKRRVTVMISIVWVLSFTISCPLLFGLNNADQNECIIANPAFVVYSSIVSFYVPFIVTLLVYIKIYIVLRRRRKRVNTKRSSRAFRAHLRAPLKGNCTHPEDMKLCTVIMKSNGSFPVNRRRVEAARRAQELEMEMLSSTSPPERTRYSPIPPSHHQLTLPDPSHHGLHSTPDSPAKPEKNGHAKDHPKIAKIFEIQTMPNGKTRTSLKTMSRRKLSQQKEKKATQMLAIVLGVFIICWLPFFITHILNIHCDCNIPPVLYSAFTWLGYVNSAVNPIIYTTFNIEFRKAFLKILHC
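PathHunter beta-arrestin assay in DiscoveRx D2 cells. Compounds were added with an EC20 of dopamine (50 nM final) for 90 min at 37 deg C. Luminescence was read 1 h after detection reagent, with 57 uM dopamine as the EC100 control.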
gsp ag: qHTS for Agonist of gsp, the Etiologic Mutation Responsible for Fibrous Dysplasia/McCune-Albright Syndrome: qHTS. hit rate 0.13% among 340,000. Potency, µM (doses to about 76.9 µM), for inactives: at the top dose activation (cAMP increase), actives largely listed as activators. gsp mutant cells, cAMP HTRF, 30 min; control for the full effect not named in the record; active = well fitted activation curve with a large enough effect; inconclusive = small, poorly fitted or top-dose-only effect, or another doubt; inactive = no such curve, though single readings can be large or run the other way; cell line not stated here;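 note: phosphodiesterase inhibitor Ro 20-1724 added with compounds to block cAMP breakdown; potency is the fitted concentration of half-maximal effect; nearly all actives have a fitted effect of over 60% in size; about a fifth of the inactives were tested at one dose only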
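Cells stably selected in G418 were plated at 2000/well, grown 16-24 hr, then given compounds in DMSO with the PDE inhibitor […] (300 uM solution added) for 30 min at 37C; cAMP was read by HTRF.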
* hit, by the source's call; i = inactive; ? = inconclusive; . = not tested or not shown; [ ] = dose if it differs, or a comment. Hits appear at their usual frequency (roughly 5.1% active in at least one column).

SMILES | ClpP mod | Sfp PPTase inh | Menin-MLL FL inh | TRPV1 potentiator | gsp antagonist | D2 potentiator | gsp ag
O=C(NCc1ccccn1)c1ccc(Cn2cc(C(F)(F)F)ccc2=O)cc1 | . | 12% | 2.4 | -6 | -8% | -1 | ?
CCOC(=O)CCNC(=O)N1CCCC(N2CCN(c3ccc(OC)cc3)CC2)C1 (stereo not given) | -4.5% | -10% | -3.3 | -3 | -7% | -9 | 3%[15.4 µM]
COc1ccc(-n2nc3ccc(N)cc3n2)cc1Cl | 3.4% | -18% | 0.8 | -9 | 4% | 17 | ?
CC(C)(C)NC(=O)Cn1nnc(-c2ccccc2NC(=O)c2cnccn2)n1 | -0.4% | 12% | 5.4 | ? | 9% | -16 | 23%
CCOC(=O)c1c(/N=C/c2cc(OC)cc([N+](=O)[O-])c2O)sc(C)c1C | -1.6% | ? | 10 | -1 | -18% | -24 | 28%[15.4 µM]
OC[C@@H](O)[C@H](O)C(/C=N/Nc1ccccc1)=N\Nc1ccccc1 | 34% | ? | -0.1 | 12 | 4% | -1 | 23%[15.4 µM]
COc1ccc(C)cc1Nc1nc(-c2c[nH]c3ccccc23)cs1 | . | 28µM* | 15 | -1 | -17% | -10 | 13%[15.4 µM]
Cc1occc1C(=O)NC1CCCN(Cc2ccc(Cl)cc2)C1 (stereo not given) | . | 17% | 4.2 | 5 | 3% | -22 | -12%
CCCCSc1ccc(NC(=O)c2cccnc2)cc1 | -5.2% | 1% | 1.2 | -5 | 0% | 3 | -1%
CCCCCCCCNS(=O)(=O)CCNC1CC1 | 1.6% | . | . | . | 8% | -6 | .
O=C(COc1ncnc2ccccc12)Nc1ccc(S(=O)(=O)N2CCOCC2)cc1 | . | 18% | -6.8 | -6 | 0% | -2 | 17%[15.4 µM]
CCOC(=O)C1CCN(C(=O)CN(C)S(=O)(=O)c2cc(C)ccc2OC)CC1 | 0.2% | 10% | 2.1 | -3 | 1% | -8 | 14%
Cc1ccc(OCCC(=O)OCC(=O)NC2CCCCC2)cc1 | 1.7% | . | . | . | . | -9 | -33%
Cn1nc(C(F)(F)F)cc1-c1ccc(S(N)(=O)=O)s1 | . | 1% | 0.8 | -12 | 11% | -8 | 2%[15.4 µM]
Cc1ccc(CN2C(=O)CCC2C(=O)NCCc2ccccc2)cc1 (stereo not given) | 1.4% | 6% | -4.2 | 8 | -3% | -6 | ?
O=C(CSc1nnc(C2COc3ccccc3O2)o1)Nc1ccc(F)cc1Cl (stereo not given) | . | 16% | -9.1 | 3 | -7% | 1 | 9%
COc1cc(C(=O)Nc2nnc(CC(C)(C)C)s2)c([N+](=O)[O-])cc1OC | -1.6% | -7% | 10.0 | -7 | ? | -30 | 8%
Nc1ncnc2c1nc(N1CCCCC1)n2[C@@H]1O[C@H](CO)[C@@H](O)[C@H]1O | 1.7% | . | . | 14 | 11% | -2 | 9%
COc1ccc(C(=O)O/N=C(\N)Cc2ccc(Cl)cc2Cl)cc1OC | 1.4% | 1% | 2.2 | -5 | 0% | 95* | -21%
CCN(c1ccc(OC)cc1)S(=O)(=O)c1nnc(NC(=O)c2ccc(C)cc2)s1 | -9.4% | 16% | . | -1 | -3% | -4 | -6%
CC(C)Cn1c(N)c(C(=O)COC(=O)c2c(O)c(Cl)cc(Cl)c2Cl)c(=O)n(C)c1=O | -2.4% | . | . | 5 | -11% | -4 | -1%
COc1ccccc1NC(=O)CN1CCCCC1 | 4µM* | 19% | 0.6 | -4 | -8% | -7 | ?
COc1ccc([C@]23Cc4cc(OC)c(OC)cc4C(O2)C2=C(CC4(CCCCC4)OC2=O)O3)cc1 | . | 1% | 15[11.7 µM] | i | . | . | .
O=S(=O)(c1cccc(-c2nc3n(n2)Cc2ccccc2-3)c1)N1CCCCC1 | 0.1% | -2% | 1.1 | -6 | 8% | -2 | 6%
CCC(C)(C)n1nnnc1C(c1ccncc1)N1CCN(c2cccc(OC)c2)CC1 (stereo not given) | -0.8% | 4% | -7.0 | 13 | -1% | -6 | -15%
COc1ccccc1N(CC(=O)NCC1CCCO1)C(=O)CNS(=O)(=O)c1ccc(C)cc1 (stereo not given) | -0.4% | 11% | 4.8 | -7 | 10% | -12 | -5%
CCOc1ccc(C2N(c3ccc(F)cc3)C(=O)C3CCCN32)cc1OC (stereo not given) | -0.9% | -5% | -1.8 | 10 | 7% | -2 | 25%
COc1ccc(C(C)(C)C)cc1NC(=O)COC(=O)c1ncc(Cl)c(Cl)c1Cl | -18% | -6% | -1.2 | 5 | 2% | -14 | ?
COc1ccc(C(=O)Nc2n[nH]c(-c3ccncc3)n2)cc1 | -4.6% | 12% | 2.5 | -7 | -4% | -11 | 1%
CCCCCCC(=O)NN1CCN(C)CC1 | 2.7% | -1% | 4.0 | 6 | 10% | -32 | -18%
COc1ccc(NC(=O)CNC(=O)c2ccco2)cc1S(=O)(=O)Nc1cc(C)ccc1Br | . | . | . | . | -6% | -7 | 35%
O=C(c1ccc(N2CCCCCC2)c([N+](=O)[O-])c1)N1CCc2ccccc21 | . | 3% | 7.2 | -7 | . | . | .
Cc1ccc2nc(SCC(=O)NCc3cccs3)c(C#N)cc2c1 | 0.8% | 24% | -0.4 | 9 | 21% | -4 | ?
Cc1c(C(=O)NC2CCCCC2)oc2ccc(F)cc12 | . | -17% | 0.0 | -12 | -8% | -3 | -60%[inhibitor]
Cc1ccc(C(=O)N2N=C(c3cccc(NS(C)(=O)=O)c3)CC2c2cccs2)cc1 (stereo not given) | -7.9% | -2% | 6.4 | ? | ? | -1 | -5%
COc1cccc(/C(C)=N/NC(=O)c2ccc(N(C)C)cc2)c1 | -9.7% | 0% | 3.2 | -3 | 4% | -4 | 15%
O=C(NNC(=O)c1cccc2ccccc12)c1cccc(Br)c1 | . | . | . | . | -9% | -8 | 32%
O=[N+]([O-])c1ccccc1-c1nc(-c2ccc(Br)o2)no1 | 0.9% | -8% | -3.3 | -5 | -28% | ? | -25%
COc1ccccc1Oc1nc2c(c(=O)n(Cc3ccccc3F)c(=O)n2C)n1C | -1.3% | 8.9µM* | 3.2 | 26 | 1% | -16 | -47%
CCOC(=O)c1cc(C#N)c(N2CCN(c3ccccn3)CC2)nc1-c1ccccc1 | . | -9% | 2.5 | 5 | -5% | 0 | 16%
O=C(c1ccccc1)N(Cc1ccc2c(c1)OCO2)Cc1nc2ccccc2c(=O)[nH]1 | -0.6% | 3% | 4.2 | -5 | 7% | -19 | -7%
CCN1C(=O)[C@H]2[C@@H](c3ccc(-c4cccc(Cl)c4)cc3)N3CCCC[C@@]3(C(=O)OC)[C@H]2C1=O | -3.8% | . | . | 5 | 2% | 0 | -74%[inhibitor]
CCC(C)(C)n1nnnc1C(c1ccc(OC)c(OC)c1)N1CCN(C(=O)c2ccco2)CC1 (stereo not given) | -1.8% | -17% | -6.6 | -3 | -6% | -10 | 3%[15.4 µM]
CC(C)(C)c1csc(NC(=O)c2ccc3nccnc3c2)n1 | -12% | -7% | 8.1 | -14 | 3% | -2 | -21%
Cc1ccc(OCCNC(=O)c2cccc(S(=O)(=O)NCc3ccccc3)c2)cc1 | -8.9% | . | . | 13 | 15% | -23 | -14%
CC(CCc1ccccc1)NC(=O)c1ccc(NC(=O)c2ccc(Cl)cc2Cl)cc1 (stereo not given) | 0.7% | 20% | 0.0 | -3 | 14% | -3 | -4%[15.4 µM]
CN1CCN(C(=O)C(N)Cc2ccccc2)CC1 (stereo not given) | ? | 17% | 0.1 | 3 | 17% | 1 | -5%[15.4 µM]
CCOC(=O)CSc1n[nH]c(NC(=O)c2cccc(C)c2)n1 | 0.3% | -16% | 3.3 | . | 0% | 1 | -2%
Cc1ccc(/C=C2\SC(=S)N(CCCC(=O)NNC(=O)c3ccccc3O)C2=O)cc1 | 0.1% | 5% | 19 | -8 | -1% | 4 | 0%
CCOC(=O)c1c(NC(=O)CSc2nnc(-c3ccccc3C)n2C)sc(C(C)=O)c1C | -2.2% | -16% | 9.3 | 2 | ? | 14 | ?
(further entries)
SMILES | ClpP mod | Sfp PPTase inh | Menin-MLL FL inh | TRPV1 potentiator | gsp antagonist | D2 potentiator | gsp ag
O=C(/C=C/Nc1ccc(F)c(F)c1)c1cccs1 | -0.8% | -10% | 7.1 | -9 | -4% | -9 | ?
O=C(NCc1cc(C(F)(F)F)cc(C(F)(F)F)c1)C1CC(c2cccc(F)c2)=NO1 (stereo not given) | 3.1% | 7% | 5.1 | ? | 3% | -6 | .
CCc1ccc(C(=O)CSc2n[nH]c(C)n2)cc1 | 0.5% | 56µM* | 1.7 | -17 | 8% | 6 | 5%
Cc1cccc(NC(=O)COc2ccc3oc4c(c3c2)CCCC4)n1 | -4.2% | 5% | 2.5 | 7 | 4% | 2 | -47%[inhibitor]
COc1ccc(CN2CCN(C(=O)CC(C)C)CC2)cc1 | 0.1% | -34% | -6.5 | 4 | 0% | -8 | -33%[inhibitor]
Cn1c(N2CCCCC2)nc2c1c(=O)[nH]c(=O)n2C | -3.6% | 9% | -0.4 | 6 | -14% | 4 | 23%
COC(=O)c1ccc(NS(=O)(=O)c2c(C)[nH]c(C)c2C(=O)N2CCCC2)cc1 | -1.6% | 13% | 0.5 | 18 | 20% | -4 | -13%
Cc1ccc(C(=O)NC(=S)Nc2cccnc2Cl)cc1 | . | 56µM* | -7.8 | ? | -11% | -16 | 14%[15.4 µM]
C=CCSc1nnc(CSc2nc3sc4c(c3c(=O)[nH]2)CCCC4)n1-c1ccccc1 | ? | -19% | 2.4 | -7 | -23% | -19 | -6%
CCOc1cccc(-c2c(C(=O)N/N=C/c3cccs3)nnn2-c2nonc2N)c1 | -6.0% | 10% | . | 0 | -24% | -6 | 0%
